# Screening data: PubChem, ICCB-Longwood Screening Facility, Harvard Medical School
# Choline anaer gr = choline-fed anaerobic bacterial growth inhibition; Gram-negative bacterium anaerobic choline minimal medium, absorbance growth; active compounds read low; many inactives read as strong as hits in the columns shown; actives 0.2% (n = 55,000); calls only;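 active = growth z-score on choline under -2 at 7 or 20 h with little or no fall on glycerol, limits in tiers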;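 also: stock transfer was 300 nL into about 50 µL; the organism is E. coli; final concentration not given here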
# Choline anaer gr early = further read-out of Choline anaer gr, marked with its call; z-score; measured here: choline growth z-score, timepoint 1;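 score of optical density at 7 h as mean of two plates; lower means less growth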
# An asterisk follows results filed as active; i = inactive; & = joins results of further samples.
cpd	SMILES	Choline anaer gr early	Choline anaer gr
1	Cc1cc(NC(=O)CN(C)S(=O)(=O)c2ccc3c(c2)C(=O)NCC(=O)N3)ccc1Br	0.56	i
2	CCCCn1nnc(NCc2ccc(-c3ccc(Cl)cc3Cl)o2)n1	-0.15	i
3	COc1ccc(NS(=O)(=O)c2cc(N3C(=O)CCS3(=O)=O)ccc2OC)c(OC)c1	0.2	i
4	CCOC(=O)CC1=CC(=O)N(CC(=O)Nc2ccc(N(CC)CC)cc2C)c2cc(C)c(C)cc2N1	-1	i
5	CN(C)c1ccc(-c2noc(-c3ccc(F)c(Cl)c3)n2)cc1	-0.22	i
6	Cc1ccc(C2=CC(c3ccccc3)n3nc(NS(=O)(=O)c4ccc(C)cc4)nc3N2)cc1 (configuration not stated)	0.76	i
7	O=c1c2[nH]c3ccccc3c2ncn1Cc1ccc(F)cc1	0.52	i
8	O=C(COc1ccc(Cl)cc1)NCCn1c(C(F)(F)F)nc2cccnc21	0.45	i
9	CCOc1ccc(NC(=O)C2CCN(Cc3cc4ccccc4n3Cc3cccc(F)c3)CC2)cc1	0.47	i
10	O=C(NCc1ccccn1)c1cccc(-n2cnc3cccnc32)c1	0.42	i
11	O=S(=O)(Nc1cccc(CN2CCCC2)c1)c1cc(-c2cc(C(F)(F)F)on2)cs1	-0.61	i
12	Cc1ccc(-c2noc(C3CCN(C(=O)C4CCC4)CC3)n2)cc1	-0.65	i
13	CCCCN(c1nc2nc(C)cc(C)n2n1)S(=O)(=O)c1ccccc1	1.5	i
14	CCN1CCN(CCNC(=O)C2CCc3sc(C(=O)N4CCC(C)CC4)cc3C2)CC1 (configuration not stated)	0.1	i
15	Cc1ccc(C(=O)NC(C)c2ccccc2)cc1NC(=O)c1nsc2ccccc12 (configuration not stated)	-0.02	i
16	O=C(NC1CCCCC1)c1ccc(-c2cccc(F)c2)nc1	1.5	i
17	COc1ccc(N2CC(c3nnc(NC(=O)c4sc5ccccc5c4Cl)s3)CC2=O)cc1 (configuration not stated)	-0.2	i
18	CNC(=O)c1c(N2CCCC2=O)c2cc(C)ccc2n1C	0.25	i
19	CCN(CCCNC(=O)C1CCN(S(=O)(=O)N2CCOCC2)CC1)c1cccc(C)c1	-0.85	i
20	CCOC(=O)c1cc2ccsc2n1CC(=O)NC1CCCCC1	0.98	i
21	CS(=O)(=O)Nc1nc2ccc(NC(=O)c3[nH]nc4c3CCc3ccccc3-4)cc2s1	-0.23	i
22	CC(C)OCCCNC(=O)c1nc(N2CCSCC2)c2cn(C)nc2n1	0.29	i
23	CCCCC[C@H](O)/C=C/[C@@H]1[C@@H](CCCCCCC(=O)O)[C@H](O)C[C@H]1O	0.18	i
24	Cc1nc(Nc2ccc(NS(=O)(=O)c3ccc(Br)cc3)cc2)cc(N(C)C)n1	1.7	i
25	NC(=O)C1CCN(c2ccc(NC(=O)C3CCCC3)c(C(=O)O)c2)CC1	-0.71	i
26	Nc1nc(SCc2ccc(Br)cc2)n[nH]1	-2.6	i
27	CCn1c(SCC(=O)N2CCC(C)CC2)nnc1-c1ccccc1O	-0.4	i
28	Cc1ccc(C)c(N2CCN(c3c4c(nc5ncnn35)CCCC4)CC2)c1	0.04	i
29	CC(=O)NC[C@H]1CN(c2ccc(N3CCOCC3)c(F)c2)C(=O)O1	-0.7&-1.4&-3	i
30	Cc1c(NC(=O)c2cc(-c3cccnc3)n[nH]2)c(=O)n(-c2ccccc2)n1C	-1.6	i

# Next section; the last five above are carried over.
cpd	SMILES	Choline anaer gr early	Choline anaer gr
26	Nc1nc(SCc2ccc(Br)cc2)n[nH]1	-2.6	i
27	CCn1c(SCC(=O)N2CCC(C)CC2)nnc1-c1ccccc1O	-0.4	i
28	Cc1ccc(C)c(N2CCN(c3c4c(nc5ncnn35)CCCC4)CC2)c1	0.04	i
29	CC(=O)NC[C@H]1CN(c2ccc(N3CCOCC3)c(F)c2)C(=O)O1	-0.7&-1.4&-3	i
30	Cc1c(NC(=O)c2cc(-c3cccnc3)n[nH]2)c(=O)n(-c2ccccc2)n1C	-1.6	i
31	CCOC(=O)c1c(NC(=O)N2CCc3cc(S(=O)(=O)N4CCC(C)CC4)ccc32)sc2c1CCCC2	-1.5	i
32	CCOc1ccc(C(=O)Nc2ccccc2CCc2nc3ccccc3n2C)cc1	0.17	i
33	O=C1CCCN2N=C(SCC(=O)NCc3ccccc3)SC2=N1	1	i
34	Cc1ccc(C)c(N2CCN(c3c4c(nc5nc(C)nn35)CCC4)CC2)c1	0.46	i
35	CCOC(=O)C1CCCN(S(=O)(=O)c2ccc(-c3onc(C)c3C)s2)C1 (configuration not stated)	-0.93	i
36	O=C(Nc1ccc(C2(C(=O)NCC3CCCO3)CC2)cc1)c1ccccc1Cl (configuration not stated)	-0.1	i
37	CC(C)Oc1ccc(NC(=O)C2CCCN(S(=O)(=O)Cc3ccc(Cl)cc3)C2)cc1 (configuration not stated)	3	i
38	CCN(CC)S(=O)(=O)c1ccc2nc(NC(=O)c3ccncc3)sc2c1	0.55	i
39	CCCCNC(=O)c1cccc(Nc2cc(-c3cccc(C)c3)ncn2)c1	0.2	i
40	CCCCN(CC)c1ccc2nnc(CCc3nc(-c4ccc(Cl)cc4)no3)n2n1	0.06	i
41	Cc1ccc(CNC(=O)CSc2c3c(nc4ccc(Cl)cc24)CCCC3)cc1	-0.15	i
42	CCOc1ccccc1NS(=O)(=O)c1cc(-c2c(C)noc2C)ccc1C	0.66	i
43	Cc1cccc(N2CCN(S(=O)(=O)c3cc(-c4nnc(C5CCC5)o4)co3)CC2)c1	1.3	i
44	CC(=O)Nc1nc(-c2ccc(S(=O)(=O)Nc3ccc(C)cc3)cc2)cs1	-0.39	i
45	CCCc1cc(C2CCCN2Cc2ccc(F)c(Br)c2)no1 (configuration not stated)	1.3	i
46	O=C(NCC1CCCCN1)c1cc(OCC(F)(F)F)ccc1OCC(F)(F)F (configuration not stated)	0.41&0.28&0.02&0.45	i
47	CCCOc1ccc(CNC(=O)CCn2cnc3c([nH]c4ccc(F)cc43)c2=O)cc1	-0.18	i
48	COCCNC(=O)C1c2ccccc2C(=O)N1Cc1ccccc1 (configuration not stated)	0.67	i
49	Cc1ccc(-c2nc3nc4c(c(N5CCCC5)n3n2)CCC4)cc1	0.12	i
50	CC1(C(=O)NC2CCCC2)Cn2c(cc3sccc32)C(=O)N1Cc1ccccc1Br (configuration not stated)	-1.4	i
51	COc1ccc(N2CCN(C(=O)CCc3nnc4c5cc(-c6ccccc6)nn5ccn34)CC2)cc1	-0.81	i
52	Cc1ccc(C2CCCCCN2S(=O)(=O)c2ccc(Cl)s2)s1 (configuration not stated)	1.2	i
53	COc1ccccc1NC(=O)C1CCCN1S(=O)(=O)c1cc2c(cc1C)NC(=O)CO2 (configuration not stated)	-0.01	i
54	Cc1ccc(-n2ncc(-c3cc(C(=O)NCC4CCCO4)c4cc(C)ccc4n3)c2C)cc1 (configuration not stated)	0.03	i
55	Cc1nc(C)c(C(=O)N2CCN(S(=O)(=O)c3ccc4c(c3)sc(=O)n4C(C)C)CC2)s1	-1.7	i
56	O=C(CN1C(=O)CCn2nc(-c3cccc(Cl)c3)cc21)N1CCCC1	-0.57	i
57	O=C(Nc1ccc2c(c1)OCCO2)c1cccc(Nc2cc(-c3cccc(F)c3)ncn2)c1	2.1	i
58	CCOc1ccc(CNC(=O)CN2C(=O)c3c(c4ccccc4n3C)C2c2ccc(OC)cc2)cc1 (configuration not stated)	1	i
59	Cc1cc(C)cc(S(=O)(=O)Nc2cc(C(=O)O)cnc2N(C)CCCc2c(C)nn(C)c2C)c1	0.44	i
60	COc1ccc(NC(=O)Nc2ccc(SCc3nnc(-c4ccccc4)o3)cc2)cc1	0.5	i
61	CCOC(=O)c1cnc(NC2CCCCC2)c2ccccc12	0.73	i
62	O=S(=O)(Nc1ccc(F)cc1F)c1ccc2c(c1)-c1oncc1CO2	-0.79	i
63	CC(=O)Nc1ccc(S(=O)(=O)NC(c2ccc(Cl)cc2)c2nnc(-c3ccccc3)o2)cc1 (configuration not stated)	-0.89	i
64	Cn1cc(-c2nc(-c3ccc(Cl)cc3)no2)c(=O)c2cc(F)c(N3CCOCC3)cc21	-0.37	i
65	CN1CCN(CCCNC(=O)CN2C(=O)CCCc3ccccc32)CC1	0.58	i
66	O=C(CSc1nnc2c3sc(N4CCCC4)nc3ncn12)Nc1ccc(Cl)cc1	-0.58	i
67	COc1ccc(C(Nc2ccccn2)c2cc(C)sc2NC(=O)c2ccccc2)cc1 (configuration not stated)	0.69	i
68	COc1cccc(CNC(=O)C2CCCN2S(=O)(=O)c2cc3c(cc2C)NC(=O)C(C)O3)c1 (configuration not stated)	-1.9	i
69	COc1ccc(-c2cc(OC(=O)c3ccc(C(C)(C)C)cc3)c3c(C)oc(C)c3c(=O)c2)cc1OC	-0.95	i
70	COc1ccc(C(=O)N2CCN(S(=O)(=O)c3ccc4c(c3)oc(=O)n4C)CC2)c(OC)c1	0.16	i
71	Cc1cc2c(cc1S(=O)(=O)N1CCCC(C(=O)N3CCN(C4CCCCC4)CC3)C1)OCC(=O)N2 (configuration not stated)	-0.83	i
72	Cc1ccc(S(=O)(=O)NCCn2c(-c3ccccc3)nc3cccnc32)cc1C	-0.31	i
73	O=C(NCC1CCCO1)c1ccc(NC(=O)N2CCCCc3ccccc32)cc1 (configuration not stated)	0.3	i
74	COc1ccc(Cl)cc1N1C(=O)[C@@H]2CCCN2[C@H]1c1ccc(Cl)cc1	-0.02	i
75	Cc1nn(CC(=O)N2CCN(c3ccccn3)CC2)c(=O)c2cc3sccc3n12	0.58	i
76	CCOc1ccc(C(=O)N2CCc3c(c(C(=O)NCc4ccccc4)nn3C)C2)cc1	0.25	i
77	COc1ccc(-c2ccc(SCc3nc(-c4ccc5c(c4)OCO5)no3)nn2)cc1OC	-0.2	i
78	Cn1c(=O)[nH]c(=O)c2c(C3C(=O)Nc4ccccc43)c(-c3ccccc3)[nH]c21 (configuration not stated)	1.9	i
79	COc1ccc(CC(=O)Nc2ccc(-c3cn4c(C(=O)N(C)C)csc4n3)cc2)cc1	0.36	i
80	CC(NC(=O)CN1c2ccccc2S(=O)(=O)c2ccccc21)c1ccccc1 (configuration not stated)	-0.98	i
81	CCC1(c2ccccc2)C(=O)NCNC1=O	0.17&0.66&0.11	i
82	Cc1cc(=O)n2[nH]c(CN(C(=O)C(C)(C)C)c3ccc(F)cc3)nc2n1	-0.51	i
83	C=C[C@@]1(C)CC(=O)[C@]2(O)[C@@]3(C)[C@H](O)CCC(C)(C)[C@@H]3[C@H](O)[C@H](OC(C)=O)[C@@]2(C)O1	0.29	i
84	O=C(c1ccc2c(c1)OCO2)N1CCc2c([nH]c3ccccc23)C1c1ccc(Cl)cc1 (configuration not stated)	0.32	i
85	O=S(=O)(c1ccc2c(c1)CCC2)N1CCC(c2noc(-c3ccc(Cl)cc3)n2)CC1	-1.9	i
86	Cc1ccc(CNc2nc(C)nc3c(-c4ccc(C)cc4)noc23)cc1	0.89	i
87	CC(Oc1ccccc1)C(=O)Nc1cccc(OCc2cc(=O)n3c(ncn3C(C)C)n2)c1 (configuration not stated)	1.1	i
88	CN(Cc1ccccc1)S(=O)(=O)c1ccc(N2CCCCS2(=O)=O)cc1	-0.06	i
89	COc1cccc(NS(=O)(=O)c2cc3c(cc2C)NC(=O)CO3)c1	-0.64	i
90	COc1ccc(-c2onc(C)c2C)cc1S(=O)(=O)CCC(=O)Nc1ccc(S(N)(=O)=O)cc1	0.28	i

# Later entries.
cpd	SMILES	Choline anaer gr early	Choline anaer gr
91	O=C(NC1CCCC1)c1ccc2c(=O)n(CC3CCCO3)c(SCc3ccccc3Cl)nc2c1 (configuration not stated)	1.7	i
92	O=C1C2N=NN(c3ccccc3)C2C(=O)N1c1cccc(F)c1 (configuration not stated)	-0.02	i
93	CCN(CC)c1nc(N)c(C(=O)NC(C)C)s1	-0.37	i
94	COc1ccc(Cc2nn3c(-c4ccc5ccccc5n4)nnc3s2)cc1OC	-0.31	i
95	CCOC(=O)c1c(NC(=O)CSc2cc(-c3ccccc3)nc(C)n2)sc(C)c1C	1.2	i
96	O=C(NCc1c(-c2ccc(Cl)cc2)nc2n1CCS2)c1ccc(F)cc1F	0.98	i
97	CCCCC(=O)N(C)CCc1noc(COc2ccccc2)n1	-0.56	i
98	O=C(Nc1ccc2c(c1)OCCO2)Nc1nnc(CC(=O)N2CCCCC2)s1	0.34	i
99	Cc1cc2nc(C(=O)NCc3ccc4c(c3)OCO4)c(=O)n(C)c2cc1C	2.1	i
100	CNC[C@H](O)c1cccc(O)c1	0.73	i
101	O=C(Nc1ccncc1)c1ccccc1OCc1nc(-c2ccccc2)no1	-0.22	i
102	CCC(C)C(=O)N1CCCN(S(C)(=O)=O)CC1 (configuration not stated)	0.05	i
103	Cc1ccc(C(=O)Nc2c3c(nn2C(C)(C)C)CS(=O)(=O)C3)cc1C	-0.46	i
104	Cc1ccc(NC(=O)CSc2ccc(-c3sc(-c4ccccc4)nc3C)nn2)cc1	1.4	i
105	Cc1oc2ccc(O)c(CN(C)C)c2c1C(=O)OCCc1ccccc1	-0.27	i
106	CCCNC(=O)CN1c2ccccc2NC2=C(C(=O)CC(C)(C)C2)C1c1ccccc1 (configuration not stated)	-1.6	i
107	CCC(=O)OCC(=O)[C@@]1(OC(=O)CC)[C@@H](C)C[C@H]2[C@@H]3CCC4=CC(=O)C=C[C@]4(C)C3(F)[C@@H](O)C[C@@]21C (some centres not stated)	0.62	i
108	COC(=O)c1ccccc1NC(=O)c1ncoc1-c1cccc(OC)c1	-0.77	i
109	Cc1cccnc1NC(=O)C(Cc1ccccc1)N1Cc2ccccc2C1=O (configuration not stated)	0.98	i
110	Cc1ccc(Cn2c(SCC(=O)O)nc3c2c(=O)n(C)c(=O)n3C)cc1	1	i
111	Cc1cccc(C(=O)N2CCc3c(c(COCc4ccccc4)nn3C)C2)c1	-1.2	i
112	COc1ccc2[nH]cc(CCNC(=O)c3ccccc3)c2c1	-0.13	i

# An excerpt; the hit share may differ from the screen's.
